eIF4H inh – inhibitors of RNA binding by human eIF4H | Q15056 | eIF4H fluorescence polarization binding assay | inhibition, % at 35 µM | 290,000 tested, 0.94% active | AID 2012;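 active = 50% or more with normal probe brightness, or confirmed in later tests; about a fifth of its hits are not listed in these tables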;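 note: calls also rest on retests at 20 µM and on dose response follow-up; 0% = protein and probe with vehicle and 100% = probe without protein; strong numbers were not always called active; many hits fall short of the cut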
HIV Env fusion – inhibitors of HIV Env-mediated cell fusion | HeLa-JRFL Env/CEM21 cell fusion, luciferase | inhibition, % at 12.3 µM | 360,000 tested, 1.1% active | AID 651610;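 active = mean replicate inhibition score of at least 50 and every replicate individually at or above 50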;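 note: 0% = plate neutral controls and 100% = maraviroc near 300 nM; one replicate is shown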
MT1-MMP act inh – blocks activation of human MT1-MMP. P50281. GFP/RFP ratio change, % at 20 µM. AID 651647. 360,000 tested, 0.061% active. HT1080 RFP-PRO-GFP cells, GFP/RFP ratio fluorescence, overnight; percent of plate control window, DMSO zero;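 active = GFP/RFP ratio change of at least 30% with cell ATP level not reduced by more than half and red fluorescence within 50% of control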; note: strong numbers were not always called active
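Compound: 20 µM single dose, 1% DMSO / System: HT1080 RFP-PRO-GFP cells / Controls: DMSO and RFP-L50D-GFP cell wells / Read-out basis: GFP/RFP fluorescence ratio / Schedule: overnight compound exposure at 37 °C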
PABP polyA inh – PABP-poly(A) binding inhibition; 290,000 tested, 1% active; P11940; inhibition, % at 35 µM; PABP-poly(A) RNA binding, fluorescence polarization;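 active = 50% or more with normal probe brightness, or confirmed in later tests; about a fifth of its hits are not listed in these tables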;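 note: calls also rest on retests at 20 µM and on dose response follow-up; controls were probe without protein and protein plus probe with vehicle; some compounds called inactive have numbers as strong as hits; many hits fall short of the cut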
Target sequence (P11940 whole entry, looked up): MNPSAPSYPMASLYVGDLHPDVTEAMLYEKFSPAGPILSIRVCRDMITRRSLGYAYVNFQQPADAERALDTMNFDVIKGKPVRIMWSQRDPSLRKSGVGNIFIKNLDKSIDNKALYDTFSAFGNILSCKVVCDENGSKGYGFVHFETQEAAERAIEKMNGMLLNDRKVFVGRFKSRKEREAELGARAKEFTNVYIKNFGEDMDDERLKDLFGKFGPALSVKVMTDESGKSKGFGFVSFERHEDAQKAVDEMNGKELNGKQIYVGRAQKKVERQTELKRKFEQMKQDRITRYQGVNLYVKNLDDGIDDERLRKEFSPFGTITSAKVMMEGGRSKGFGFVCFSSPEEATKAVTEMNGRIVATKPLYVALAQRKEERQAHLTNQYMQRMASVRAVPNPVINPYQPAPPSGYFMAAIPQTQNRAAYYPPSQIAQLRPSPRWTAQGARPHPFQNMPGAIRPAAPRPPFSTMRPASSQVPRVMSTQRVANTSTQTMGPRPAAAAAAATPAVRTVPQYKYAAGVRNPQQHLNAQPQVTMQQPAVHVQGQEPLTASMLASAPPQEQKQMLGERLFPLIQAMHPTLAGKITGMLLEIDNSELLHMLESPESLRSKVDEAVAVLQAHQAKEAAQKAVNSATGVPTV
UUG fidelity – modulators of start codon recognition fidelity in yeast; activity score, % at 18.7 µM; 350,000 tested, 0.13% active; S. cerevisiae UUG-firefly luciferase reporter, luminescence/redox ratio;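 active = replicate mean at a twofold rise or more, about +100% in these data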;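 note: firefly luciferase made from a UUG start codon reports start codon fidelity; reporter light over untreated wells divided by growth signal over untreated wells; some hits fall short of that in this replicate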
Rce1 inh – inhibitors of yeast Ras-converting enzyme | Q03530 | yeast membranes, quenched prenylated peptide cleavage fluorescence | calls only | 290,000 tested, 0.27% active | AID 2563;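 active = fall in fluorescence gain of 50% or more versus controls, with final raw signal at or below 3038400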;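 note: plate controls were neutral control wells for no effect and wells lacking membranes for full effect; tested at 10 µM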
CSC inhib – cancer stem cell inhibition. cancer stem cell-like cells viability, luminescence. AID 2717. 300,000 tested, 1.1% active. inhibition, % at 7.5 µM;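 active = mean at 75% or more and at least half the replicates too; tested in HMLE shEcad cells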;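 note: 0% = median of negative and 100% = median of positive control wells; the first replicate is given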
eIF4H inh retest – also measured in eIF4H inh; calls as there; inhibition, %; compound at 20 µM; confirmation average;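 mean of two retest wells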
PABP polyA inh retest – second read-out of PABP polyA inh, no call of its own (marks repeat the call); inhibition, %; compound at 20 µM; confirmation repeats;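 mean of two retest wells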
MT1-MMP act inh RFP – also measured in MT1-MMP act inh; calls as there; RFP signal change, %; measured here: RFP expression control read;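 0 = vehicle wells; hits needed this value within 50% of zero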
* marks the source's active call; other numbers are inactive results; i = inactive; . = no result given. An unsorted share of the library, and some 2.9% of all compounds hit somewhere here.

SMILES	eIF4H inh	HIV Env fusion	MT1-MMP act inh	MT1-MMP act inh RFP	PABP polyA inh	UUG fidelity	Rce1 inh	CSC inhib	others
CC(=O)Nc1cc(-c2nn3c(C)nnc3s2)ccc1C	-7	2	2	2	2	-4	i	6
CN(Cc1ccccc1)C(=O)c1cccc(NC(=O)Cc2ccc(NC(=O)C3CCCN(C(=O)C4CCCCC4)C3)cc2)c1 (stereo not given)	.	2	4	-17	.	-8	.	.
CC1CC(=O)Nc2ccccc2N1C(=O)COc1ccc2cc(Br)ccc2c1 (stereo not given)	.	.	0	-1	.	-13	.	-11
COCCN(CCOC)S(=O)(=O)c1ccc(C(=O)Nc2nnc(CSC)o2)cc1	3	-5	-6	-1	-2	.	i	-2
Oc1oc(-c2ccco2)nc1C=Nc1ccccc1	0	.	1	0	6	17	i	-4
CCc1ccc2[nH]c(=O)c(CN(CCN(CC)CC)C(=S)NCc3ccco3)cc2c1	41	-23	-3	-3	35	.	i	-5
COc1cc(C(=O)N2CCN(CC(O)COc3ccccc3)CC2)cc(OC)c1OC (stereo not given)	.	17	1	5	.	-2	i	0
Cc1cc(NC(=O)Nc2ccc(OCc3ccccc3)cc2)n(C)n1	-5	.	6	2	4	-13	i	27
Cc1oc(C(=O)O)cc1COc1ccc2c3c(c(=O)oc2c1C)CCC3	2	-13	2	0	8	-11	i	-2
CCCCN(CC)Cc1ccc(CNC(=S)Nc2ccc(C)cc2Cl)o1	2	12	-7	1	0	.	i	8
O=C(CN1C(=O)CCSc2ccc(S(=O)(=O)N3CCCC3)cc21)Nc1ccccc1Cl	-10	-3	0	-1	-6	-7	i	-4
C/C(=N/NC(=O)NC12CC3CC(CC(C3)C1)C2)c1ccccc1	5	-50	-1	-5	3	-13	i	-8
Cc1ccc(NCCC(=O)c2cccs2)cc1	-4	-9	-1	2	34	-1	i	1
COc1cccc(/C=N/NC(=O)c2[nH]nc3c2CCc2ccccc2-3)c1	1	-235	10	-5	-3	-11	i	37
CC(=O)Oc1ccc(C(=O)Nc2nnc(C)s2)cc1	-8	-23	9	6	-4	-13	i	-12
O=C(CC(c1ccccc1)c1ccccc1)NCc1cccnc1	-4	.	-2	-2	1	-26	i	-2
COCCNC(=O)C1(C)CCN(C(=O)c2sccc2C)C1 (stereo not given)	.	-73	-3	4	.	-12	.	.
CCc1ccc2[nH]c(=O)c(CN(Cc3ccccc3)Cc3nnnn3Cc3ccco3)cc2c1	16	.	-15	-13	16	-1	i	-2
O=C(NCc1ccccc1)c1ccccc1CO	-1	-14	-1	2	13	.	i	-6
CCCOc1ccc(C(=O)Nc2ccc(S(=O)(=O)Nc3onc(C)c3C)cc2)cc1	2	9	-2	-4	-7	.	i	-1
CCC1(C(=O)NC(=Nc2ccccc2)Nc2ccccc2)CCOC1=O (stereo not given)	.	-12	2	4	.	-25	.	.
COc1ccc(C(=O)Nc2cccc(C)c2)cc1	-2	-249	3	-3	6	-23	i	22
O=C1CCCCC1Nc1ccc2ccccc2c1 (stereo not given)	.	-29	-5	5	.	-8	.	.
C/C(=N\Nc1cc(N2CCOCC2)ncn1)c1cccc([N+](=O)[O-])c1	-10	26	2	0	-8	.	i	.
CCOC(=O)c1sc(NNC(=O)c2ccc(F)cc2)nc1C	-8	0	.	.	1	.	i	5
SMILES	eIF4H inh	HIV Env fusion	MT1-MMP act inh	MT1-MMP act inh RFP	PABP polyA inh	UUG fidelity	Rce1 inh	CSC inhib	others
NC(=O)[C@@H]1CCOc2c(I)cc([N+](=O)[O-])cc2C(=O)N[C@@H](CO)C(=O)NCC(=O)N1	1	13	-2	3	-2	-1	i	-14
CCOc1cc(-c2nc(-c3ccc(C)nc3OC)no2)cc(OCC)c1OCC	-7	26	3	6	7	-16	i	.
CC12CCC(C1)C(C)(C)C2NS(=O)(=O)c1ccc(F)cc1 (stereo not given)	.	3	2	2	.	-15	.	.
COc1cccc(CN2C(=O)C(C)Oc3ccccc32)c1 (stereo not given)	-6	7	-2	-2	-5	-14	i	9
COc1ccc(OC)c(NC(=O)C2C3C=CC(C3)C2C(=O)NCc2ccccn2)c1 (stereo not given)	0	-12	4	3	0	-16	i	-14
O=C(Cn1c(=O)cnc2ccccc21)Nc1cccc(S(=O)(=O)N2CCCCC2)c1	.	.	-4	-6	.	6	.	-7
Cn1c(CN2CCOCC2)nnc1SCC(=O)NCCc1ccccc1	14	-30	-1	-1	-1	-13	i	-19
O=C(COc1ccccc1Cl)Nc1ccc(NC(=O)c2ccco2)cc1	-9	-3	1	0	-9	-8	.	-8
Cc1nn(-c2cc(N3CCCCC3)ccc2[N+](=O)[O-])c(=O)c2ccccc12	8	-41	6	-2	-1	.	i	7
COc1ccc(-n2c(-c3ccc(Br)cc3)n[nH]c2=S)cc1	2	-9	5	-3	5	-12	i	3
Nc1ccn([C@@H]2O[C@H](CNCc3cnc(N4CCOCC4)s3)[C@@H](O)[C@H]2O)c(=O)n1	.	-10	0	0	.	-18	.	.
Cc1cccc(/C=N/n2c(-c3ccncc3)n[nH]c2=S)c1	2	8	2	3	-1	.	i	-12
CCn1cc(C(=O)N[C@H](C(=O)NCCCn2ccnc2)C(C)C)c(=O)c2cc3c(cc21)OCO3	8	-3	0	3	5	-19	i	-11
COc1cc(CC(=O)OCC(=O)Nc2sccc2C(N)=O)cc(OC)c1OC	5	-13	-5	-23	-4	-3	i	-4
CC(C)(C)NC(=O)NC(=O)COC(=O)COc1ccc2c(c1)CCC2	-5	-69	0	-1	0	-2	i	.
COc1ccc(S(=O)(=O)N2CCCC(C(=O)O)C2)cc1Cl (stereo not given)	-9	.	5	2	-1	4	i	5
Cc1ccc(CNCCCSc2ncccn2)cc1	46	-42	-4	3	48	-16	i	-5
CCOc1ccc(C(=O)NC(C(=O)NCc2cccnc2)C(C)C)cc1 (stereo not given)	-8	19	-2	2	6	-28	i	18
O=C(Nc1ccc(F)cc1)c1sccc1SCc1cccc(C(F)(F)F)c1	-3	31	-4	-5	17	-9	i	26
O=c1[nH]c(CN2CCN(S(=O)(=O)c3cccs3)CC2)nc2c(Br)cc(Br)cc12	-15	19	4	-2	14	-1	i	14
CCCC(C)C(=O)NCc1ccncc1 (stereo not given)	-17	-14	-6	-1	-2	-15	i	-1
CC(C)(C)C(=O)Cn1ncc(N2CCOCC2)c(Br)c1=O	0	-17	-3	2	5	.	i	-7
Cc1nc(NCC(c2ccccc2)N(C)C)c2c(C)c(C)sc2n1 (stereo not given)	-5	8	0	-3	11	-6	.	28
CCN1C(=O)[C@H]2[C@@H](c3ccc(OC)cc3)N[C@]3(CCCN(Cc4ccc(C(F)(F)F)cc4)C3=O)[C@H]2C1=O	.	-20	1	2	.	4	.	.
CC(=O)C1=C(O)C(=O)N(c2ccc(O)cc2)C1c1ccccc1F (stereo not given)	2	22	2	0	3	-13	i	-6

The closing 2 records of the part before lead into the next.
SMILES	eIF4H inh	HIV Env fusion	MT1-MMP act inh	MT1-MMP act inh RFP	PABP polyA inh	UUG fidelity	Rce1 inh	CSC inhib	others
CCN1C(=O)[C@H]2[C@@H](c3ccc(OC)cc3)N[C@]3(CCCN(Cc4ccc(C(F)(F)F)cc4)C3=O)[C@H]2C1=O	.	-20	1	2	.	4	.	.
CC(=O)C1=C(O)C(=O)N(c2ccc(O)cc2)C1c1ccccc1F (stereo not given)	2	22	2	0	3	-13	i	-6
CCCOc1cccc(/C=N/NC(=O)c2csc(C)c2C)c1	1	-48	1	2	13	-15	i	16
COc1ccc(-n2cnc3cc(C(=O)NCCN4CCOCC4)ccc32)cc1	-5	23	-2	2	-1	.	i	10
CCCCn1c(N)c(N(CC)C(=O)c2cccc(OCc3ccccc3)c2)c(=O)[nH]c1=O	.	9	-5	1	.	-8	.	-5
CS(=O)(=O)Nc1ccccc1C(=O)NCc1ccco1	4	.	-6	5	5	-14	i	1
CC1C(=O)N(Cc2cn(CCC3OCCCO3)nn2)CCS(=O)(=O)N1Cc1ccc(-c2cccc(N(C)C)c2)cc1 (stereo not given)	.	0	2	4	.	-12	.	.
CCOc1ccc2cc(S(=O)(=O)n3ccnc3C)ccc2c1	-11	.	6	4	-7	-20	i	-7
COC(=O)c1ccc(C(=O)OC)c(NC(=O)COC(=O)CC2CC3CCC2C3)c1 (stereo not given)	2	-37	9	10	-3	-13	i	-10
Cc1cccc(COc2ccccc2C(=O)NC2CCC(O)CC2)c1 (stereo not given)	.	10	-1	2	.	8	i	-4
CCN(CC)S(=O)(=O)c1cc(NC(=O)c2ccc3c(c2)NC(=O)C(C)S3)ccc1C (stereo not given)	.	1	-7	-28	.	-10	.	6
COc1ccc(NS(=O)(=O)c2cc(C(=O)N3CCCCCC3)ccc2C)cc1	.	.	0	0	.	63	.	-1
COc1ccccc1-n1cc(-c2ccc(C)cc2)[nH]c1=S	-1	-31	-2	-2	-2	.	i	35
Cc1cc(Nc2ccc(C(=O)O)cc2)nc(N)n1	9	0	-6	-2	6	-19	i	6
COc1cccc2cc(C(=O)NCc3ccco3)c(=O)oc12	-4	22	0	3	2	.	i	-5
O=C1COc2ccc(C(=O)NC3CC3)cc2N1	-3	4	0	1	3	-16	.	-12
CCN(CC)S(=O)(=O)c1cccc(C(=O)N2CC(O)CC2C(=O)O)c1 (stereo not given)	3	.	1	6	31	-12	i	-5
COc1ccc(C(=O)/C=C(\C)Nc2ccc3c(c2)OCO3)cc1	-6	-69	-8	4	-5	2	i	9
COC(=O)c1ccc(NC(=O)Cn2cnc3c(nnn3-c3cccc(OC)c3)c2=O)cc1	-2	-16	-3	-1	0	-9	i	9
C#CCOc1ccc(/C=N/O)cc1Cl	-4	-57	4	7	-1	.	i	0
COc1ccc(C(=O)NCC(=O)N/N=C/c2ccc([N+](=O)[O-])s2)cc1OC	13	15	1	-3	-14	.	i	-4
CN1CCCC(OC(=O)c2cc(Cl)ccc2Cl)C1 (stereo not given)	-2	.	1	3	8	-5	i	-7
COCCOc1cc(NCc2ccccc2)c2ncn(C(C)C)c2c1	.	-9	-3	1	.	-15	.	10
CCCCn1nnnc1SCC(=O)NNC(=O)C1CCCCC1	-10	.	5	0	7	-19	i	-7
COC(=O)c1cnc(Nc2nc(C(N)c3ccccc3Cl)cs2)nc1C(F)(F)F (stereo not given)	.	-3	-1	5	.	-2	.	.
CC(=NNC(=O)c1cc(C)oc1C)c1ccc(Br)s1	.	.	7	2	.	-6	.	-15
CCN1C(=O)[C@H]2[C@H]3CN=C(SCc4ccc(C)cc4)N3[C@@](CC)(C(=O)OC)[C@H]2C1=O	.	40	-1	3	.	-15	.	.

Compounds shown so far with a tert-butyl group (two):
SMILES	eIF4H inh	HIV Env fusion	MT1-MMP act inh	MT1-MMP act inh RFP	PABP polyA inh	UUG fidelity	Rce1 inh	CSC inhib	others
CC(C)(C)NC(=O)NC(=O)COC(=O)COc1ccc2c(c1)CCC2	-5	-69	0	-1	0	-2	i	.
CC(C)(C)C(=O)Cn1ncc(N2CCOCC2)c(Br)c1=O	0	-17	-3	2	5	.	i	-7

(next part)
SMILES	eIF4H inh	HIV Env fusion	MT1-MMP act inh	MT1-MMP act inh RFP	PABP polyA inh	UUG fidelity	Rce1 inh	CSC inhib	others
COc1ccc(NC(=O)C2CCCN(C(=O)NC3CCCCC3)C2)cc1OC (stereo not given)	10	-11	9	8	-10	-2	i	1
CC(=O)/C(=N/Nc1cccc(C)c1)N1CCOCC1	11	-60	3	-2	0	-8	i	61
Cc1nn(CCOc2cccc(Cl)c2)c(C)c1[N+](=O)[O-]	-1	0	6	1	0	-9	i	1
O=C(NCc1ccco1)c1ccc(S(=O)(=O)N2CCOCC2)cc1	79*	-36	3	1	26*	4	i	-2	eIF4H inh retest=92*;PABP polyA inh retest=68*
Cc1nc(NC(=O)c2cccc(Cl)c2)sc1C(=O)N1CCCCC1	-14	-25	1	0	-9	13	i	6
Cc1cccc(CN2CCN(C3CN(Cc4cn(Cc5ccccc5F)nn4)S(=O)(=O)C3)CC2)c1 (stereo not given)	.	-4	3	1	.	-8	.	.

From PubChem BioAssay
